ClpP mod – qHTS Assay for Activators of ClpP. ATP-dependent Clp protease proteolytic subunit (Bacillus subtilis (strain 168)), P80244. purified B. subtilis ClpP, FRET peptide cleavage, 20 min. Potency, µM (doses to about 57.5 µM), without a hit: at the highest dose activity change, negative = active. 1.9% of 340,000 active; active = well fitted falling curve with a large enough effect; inconclusive = small, poorly fitted or top-dose-only effect; inactive = no such curve, though single readings can be large or run the other way; also: potency is read from the fitted curve at half-maximal effect; the source files actives as falling curves though it sought activators and does not explain the sign; nearly all actives have a fitted effect of over 65% in size; many hits overshoot -100%
Target sequence (P80244 whole entry, looked up): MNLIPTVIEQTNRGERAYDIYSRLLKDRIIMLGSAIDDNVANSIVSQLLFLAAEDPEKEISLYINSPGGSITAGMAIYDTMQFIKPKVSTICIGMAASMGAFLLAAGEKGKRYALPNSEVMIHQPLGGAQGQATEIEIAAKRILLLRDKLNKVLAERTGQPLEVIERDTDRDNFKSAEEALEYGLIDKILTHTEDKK
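Buffer: 100 mM Tris/HCl pH8, 100 mM KCl, 0.05% low protease BSA, 2.5% glycerol, 0.01% Tween-20. ClpP 10 microg/mL final; 20 min RT; delta FRET normalized to ADEP and DMSO controls.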
Sfp PPTase inh – qHTS Assay for Inhibitors of Bacillus subtilis Sfp phosphopantetheinyl transferase (PPTase) | 4'-phosphopantetheinyl transferase ffp (Bacillus subtilis), Q9F4F7 | Biochemical Sfp PPTase activity, qHTS | Potency, µM, inactives show max response, negative = inhibition, hits mostly inhibitors | 3.5% of 310,000 active | AID 1490, 2009; active = well fitted inhibition curve with a large enough effect; inconclusive = small, poorly fitted or top-dose-only effect, or another doubt; inactive = no such curve, though single readings can be large or run the other way;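 also: the enzyme is Sfp with the accession as filed and its product quenches rhodamine fluorescence; potency is read from the fitted curve at half-maximal effect; 0% = enzyme reaction without inhibitor and -100% = no enzyme wells; top concentration of the series not given in the record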
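Fluorescence-quenching assay: 15 nM Sfp-PPTase preincubated 15 min at room temperature with compound, then 5 uM rhodamine-CoA and 12.5 uM BHQ-2-labelled YbbR peptide added. Fluorescence (ex 525/em 598 nm) read at start and after 30 min; difference gives rate.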
gsp antag – qHTS for Antagonists of gsp, the Etiologic Mutation Responsible for Fibrous Dysplasia/McCune-Albright Syndrome: qHTS | gsp-mutant cells, cAMP HTRF, 30 min; control for the full effect not named in the record | Potency, µM (highest dose often 76.9 µM), without a hit: at the top dose activity change, negative = inhibition, actives largely listed as inhibitors | 0.4% of 340,000 active; active = falling curve of any shape with a large fitted effect; inconclusive = falling curve, mostly with a smaller effect; inactive = flat or rising curve; cell line not stated here;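 also: intracellular cAMP measured with PDE inhibitor Ro 20-1724 present during compound exposure; potency is read from the fitted curve at half-maximal effect; % is scaled to controls: 0 for no effect and ±100 for the full control effect; nearly all actives have a fitted effect of over 65% in size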
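Measurement of cellular cAMP by homogeneous time-resolved fluorescence following a 30 min compound exposure at 37C. The PDE inhibitor […] was present throughout; the assay buffer was DPBS with 0.05% BSA and 0.005% Tween 20.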
D2 potentiator – Beta-Arrestin HTS for Positive Allosteric Modulators of the Human D2 Dopamine Receptor: Potentiators; D(2) dopamine receptor (Homo sapiens), P14416; DiscoveRx D2 beta-arrestin cells, luminescence, 90 min; 100% = 57 uM dopamine signal; potentiation, % (concentration not given with the values); 0.23% of 360,000 active; AID 624464, 2012; active = potentiation of 50% or more; inconclusive = 30% to 50%; inactive = 30% or less;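 also: compound concentration not given in the record; tested on top of an EC20 dose of dopamine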
Target sequence (P14416 whole entry, looked up): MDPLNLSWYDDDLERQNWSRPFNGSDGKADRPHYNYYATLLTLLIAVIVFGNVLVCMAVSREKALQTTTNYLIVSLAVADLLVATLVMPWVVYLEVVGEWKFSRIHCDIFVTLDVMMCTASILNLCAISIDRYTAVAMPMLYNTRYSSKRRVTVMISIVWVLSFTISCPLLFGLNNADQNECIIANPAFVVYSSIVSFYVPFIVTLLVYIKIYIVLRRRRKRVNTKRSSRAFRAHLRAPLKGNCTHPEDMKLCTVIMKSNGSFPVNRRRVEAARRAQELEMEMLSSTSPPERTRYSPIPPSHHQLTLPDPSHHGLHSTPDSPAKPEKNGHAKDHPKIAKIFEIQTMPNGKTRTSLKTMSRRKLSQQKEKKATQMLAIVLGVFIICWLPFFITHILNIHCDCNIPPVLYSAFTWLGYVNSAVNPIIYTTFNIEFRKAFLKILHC
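PathHunter beta-arrestin assay in DiscoveRx D2 cells. Compounds were added with an EC20 of dopamine (50 nM final) for 90 min at 37 deg C. Luminescence was read 1 h after detection reagent, with 57 uM dopamine as the EC100 control.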
Menin MLL FP FL – qHTS Assay for Inhibitors Targeting the Menin-MLL Interaction in MLL Related Leukemias: Competition With Fluorescein Labeled MLL-derived Peptide; Fluorescence polarization, fluorescein-MLL peptide displacement from menin; FP activity change, % at 61.4 µM; 290,000 tested, under 10 active; AID 1766, 2009; inconclusive = falling polarisation curve, or a change in total fluorescence; inactive = total fluorescence flat and polarisation flat or rising; no compound was filed as active; the % refers to the polarisation; negative = inhibition;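 also: % of control where 0% means no effect; inhibitors lower the polarisation; unlabelled MLL peptide was the positive control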
gsp agonist – qHTS for Agonist of gsp, the Etiologic Mutation Responsible for Fibrous Dysplasia/McCune-Albright Syndrome: qHTS; gsp mutant cells, cAMP HTRF, 30 min; control for the full effect not named in the record; Potency, µM (highest dose often 76.9 µM), inactives show at the highest dose activation (cAMP increase), most hits filed as activators; 0.13% of 340,000 active; AID 624287, 2012; active = well fitted activation curve with a large enough effect; inconclusive = small, poorly fitted or top-dose-only effect, or another doubt; inactive = no such curve, though single readings can be large or run the other way; cell line not stated here;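 also: phosphodiesterase inhibitor Ro 20-1724 added with compounds to block cAMP breakdown; potency is read from the fitted curve at half-maximal effect; nearly all actives have a fitted effect of over 60% in size; about a fifth of the inactives were tested at one dose only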
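Cells in DMEM/10% FBS with G418 were pretreated with compounds in DMSO plus […] (300 uM stock) for 30 min at 37C. cAMP was measured by HTRF (cAMP-d2 plus anti-cAMP antibody-K) after 30 min at room temperature.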
TRPV1 PAM – HTS Assay for Compounds that Act as Potentiators of the Vanilloid Receptor 1; potentiation, % at 8.33 µM; Transient receptor potential cation channel subfamily V member 1 (Homo sapiens), Q8NER1; 0.02% of 320,000 active; TRPV1-expressing cells, Fluo-8 calcium influx, capsaicin EC20 potentiation; host cell line not named in the record; control for the full effect not named in the record; active means potentiation above 80%; inconclusive means 30% to 80%; inactive means below 30%; also: 0% is about no effect
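Fluo-8 calcium influx in TRPV1-expressing cells, kinetic read (ex 480/em 520 nm). Compound added and read 3 min for agonist activity, followed by capsaicin at EC20 final and 2 min further read for enhancement.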
An asterisk follows results filed as active; ? = inconclusive; / = no result given; & = joins results of further samples; [ ] = another dose, or the depositor's remark.

SMILES	ClpP mod	Sfp PPTase inh	gsp antag	D2 potentiator	Menin MLL FP FL	gsp agonist	TRPV1 PAM
COc1ccc(NC(=O)Cn2c(NCC(C)O)nc3ccccc32)cc1Cl (stereo not given)	-1.1%	3.7%	-0.8%	-4.3	-3.0	-28.4%	1.3
CCCCNC(C(=O)Nc1cccc(S(=O)(=O)N2CCOCC2)c1)c1ccccc1 (stereo not given)	/	6.9%	11.2µM*	-7.5	-1.0	-1.1%[15.4 µM]	-10.6
C=CCC(C#Cc1ccc(C)cc1)N(CC)CC (stereo not given)	-1.4%	13.9%	7.7%	-7.6	4.0	?	3.7
O=C(Cn1nnc(-c2cccs2)n1)NCc1ccco1	3.5%	22.8%	7.7%	-25.7	-0.5	?	8.1
CS(=O)(=O)N1Cc2ccccc2CC1C(=O)OCC(=O)NCc1ccccc1 (stereo not given)	-8.8%	/	4.2%	5.2	/	-13.3%	/
Cc1ccc2nc(SCn3nnc4ccccc4c3=O)[nH]c2c1	-3.2%	1.7%	-6.4%	0.7	2.1	-16.1%[15.4 µM]	13.7
CCOC(=O)N(C)C[C@@H]1OCc2ccccc2-c2c(n(C)c3ccccc23)C(=O)N([C@H](C)CO)C[C@H]1C	-10.7%	/	/	-4.5	/	?	/
O=C1/C(=C\c2ccsc2)N2CCC1CC2	/	?	7.1%	-13.0	-0.1	-2.3%[15.4 µM]	-25.3
O=C(CCc1nnc(-c2ccccc2)o1)c1ccc(Cl)cc1	/	19.0%	17.2%	-15.3	2.1	6.4%	/
c1ccc(Cn2c(Sc3nnnn3-c3ccccc3)nnc2-c2ccccc2)cc1	-10.5%	17.2%	-21.7%	-7.0	2.7	-43.3%[inhibitor]	/
Cc1ccccc1NC(=O)c1ccc(-n2cncn2)nc1	0.5%	14.1%	0.1%	-12.3	-1.1	-22.8%	-19.5
O=C(NCc1nc2ccccc2[nH]1)C1=C[C@@H](c2ccccc2)C[C@@H](OCCCCO)O1	-0.9%	-4.3%	-8.5%	-18.0	6.9	/	8.8
COc1ccc(CNC(=S)Nc2ccc3nc(N4CCN(C)CC4)cc(C)c3c2)cc1	/	-4.0%	2.7%	-10.2	-1.8	-20.0%[15.4 µM]	-0.4
O=C(NNC(=O)c1ccc[nH]1)Nc1cccc(C(F)(F)F)c1	/	8.1%	4.5%	-1.0	1.6	5.3%	-6.3
O=C(CCOc1cccc(Br)c1)Nc1ccc(F)c(S(=O)(=O)N2CCOCC2)c1	-6.4%	/	?	-0.1	/	-5.5%[15.4 µM]	-9.3
Cn1c(COc2ccc3ccccc3c2)nnc1SCC(=O)O	-0.3%	5.3%	-2.5%	-5.2	3.5	-3.2%	-12.6
O=C(O)c1ccccc1C(=O)Nc1cc(-c2ccccc2)[nH]n1	-1.4%	11.0%	13.1%	-7.8	2.3	4.1%[15.4 µM]	1.7
COc1ccc(CN2CCNC(=O)C2CC(=O)N(C)CC2CCOCC2)cc1C (stereo not given)	-1.5%	14.0%	0.6%	-7.1	-10.9	?	1.4
CCN(CC)CCOC(=O)C1(C2CCCCC2)CCCCC1	-1.6%	8.1%&-6.3%&15.0%	-0.1%	/	1.2	/	-11.6
CCN(CCC(=O)Nc1cc(OC)cc(OC)c1)Cc1ccccc1	-16.4%	44.7µM*	20.7%	-30.2	-2.5	-19.4%	7.9
CCn1cc([N+](=O)[O-])c(C(=O)Nc2ccc(Cn3nc(C)cc3C)cc2)n1	-0.8%	2.8%	3.8%	-2.4	-0.3	-40.4%[inhibitor]	-3.3
CN(C)C(=O)COc1ccc2c3c(c(=O)oc2c1)CCCC3	4.4%	-7.8%	-7.9%	0.9	-3.1	4.1%	-7.4
OC(COc1cccc2ccccc12)CN1CCOCC1 (stereo not given)	?	/	4.6%	-6.0	/	-0.9%[15.4 µM]	/
CN(C(=O)COc1ccccc1C(=O)NCCc1ccccc1)c1ccccc1	-3.1%	14.0%	-5.5%	14.2	2.7	-26.1%	13.4
COc1ccc(/C(N)=N/OC(=O)CCCc2ccccc2)cc1	-5.5%	7.9%	-6.3%	-9.0	4.3	24.5%	-7.4
CC(C)(C)OC(=O)N1CCN(C(=O)c2nc[nH]c2C(=O)N2CCN(C(=O)OC(C)(C)C)CC2)CC1	0.2%	/	10.7%	-3.1	/	/	-3.1
COc1ccc(-n2c(=O)c3c4c(sc3n(CC(=O)NCC3CCCO3)c2=O)CN(C(C)=O)CC4)cc1OC (stereo not given)	-0.6%	/	/	-6.1	/	-56.6%[inhibitor]	/
COc1ccc(CNS(=O)(=O)c2cn(C)c(=O)n(C)c2=O)cc1	-2.5%	7.5%	4.4%	-0.1	/	14.4%	-3.4
Cc1ccc(NC(=O)c2ccc(=O)[nH]n2)cc1S(=O)(=O)Nc1ccc(SC(F)F)cc1	-0.5%	/	-7.3%	-0.1	/	10.3%	/
O=C1NCCOC(=O)[C@H](Cc2ccc(F)cc2)C/C=C\C[C@@H]1CC(=O)N(CCO)Cc1ccccc1	0.5%	/	-9.7%	-5.6	/	/	/
C=CCn1c(SCC(=O)/C(C#N)=C(\C)N)nc2sc(C)c(C)c2c1=O	2.3%	-0.2%	5.2%	-10.6	5.3	11.4%	-11.4
Cc1occc1-c1n[nH]c(=S)n1CC(C)C	2.1%	-8.4%	1.3%	-2.6	1.0	-37.1%[inhibitor]	-4.7
COc1ccc(CC(=O)O/N=C(\N)c2ccc(Br)cc2)cc1OC	0.0%	-6.8%	-6.8%	4.9	1.0	-20.8%	-12.4
O=C(CNC(=O)c1cccc(-n2cccc2)c1)Nc1ccccc1Br	-5.0%	/	/	-9.9	/	1.0%	/
Cc1ccc(-c2nc3sc4c(c3c(=O)n2N)CCCC4)cc1	-7.4%	-12.7%	-19.5%	-0.6	0.0	12.4%	-7.4
NC(=O)C1=C[C@H](c2ccc(C(F)(F)F)cc2)C[C@H](OCc2ccc(CO)cc2)O1	0.2%	0.6%	9.1%	-1.7	-1.7	/	23.3
COc1ccc(NC(=O)CCC(=O)Nc2nnc(C(F)(F)F)s2)c(OC)c1	1.5%	6.3%	-6.2%	-7.0	0.8	-9.0%	10.6
CCCC(=O)Nc1nnc(SCC(=O)N2C(C)CCCC2C)s1 (stereo not given)	/	15.4%	0.4%	-1.7	5.2	-14.3%	0.6
Cc1c(CC(=O)O)c(=O)oc2cc3oc4c(c3cc12)CCCC4	/	10.0%	-21.3%	-3.5	3.9	14.0%[15.4 µM]	5.9
Cn1c(SCC(=O)c2ccc(O)cc2O)nnc1-c1ccccc1	/	-0.8%	-10.6%	-5.3	4.1	23.4%	-2.9
O=C(NNc1ncnc2sccc12)c1ccc(Cl)cc1	0.0%	9.7%	-19.8%	-20.0	2.9	9.4%[15.4 µM]	-4.0
CN(C)Cc1cc(C(C)(C)C)cc(C(C)(C)C)c1O	-3.6%	9.8%	-17.9%	-9.9	1.3	8.5%	5.5
CCOc1ccc(S(=O)(=O)N2CCCCC2)cc1NC(=O)CN1C(=O)NC(CC)(c2ccccc2)C1=O (stereo not given)	-7.4%	27.9%	-19.9%	-1.8	/	-26.9%	5.3
C=CCn1c(SCc2cccc(F)c2)nc2cc(C(=O)N3CCC(C(N)=O)CC3)ccc2c1=O	-8.7%	-11.6%	-7.2%	12.7	0.9	14.6%	4.2
N#Cc1nc(Cc2cccc3ccccc23)oc1NCCN1CCOCC1	-2.5%	-0.1%	5.3%	-3.0	2.2	-11.8%	11.7
CC(C)(C)OC(=O)NNC(=S)NC1CCCCC1	/	10.7%	/	-46.5	1.2	3.5%[15.4 µM]	9.8
O=C1/C(=C\c2cccnc2)SC(=S)N1C1CCS(=O)(=O)C1 (stereo not given)	-0.1%	79.4µM*	-1.5%	-1.2	4.5	-3.4%	/
Cc1cc(C)n(C(=O)c2cccc(S(=O)(=O)N3CCCC3)c2)n1	1.5%	2.5%	7.8%	-5.8	-1.6	16.9%	-13.2
O=C(CCS(=O)CCC(=O)NCc1ccccc1)NCc1ccccc1	-10.8%	12.8%	-16.4%	-8.9	-0.9	-28.3%	21.8
O=C(CSc1nnnn1C1CCCCC1)N1CCOCC1	0.1%	12.6%	15.0%	-1.2	0.2	?	2.8
CC1(C)CN=C(N(C(=O)Nc2ccccc2)c2ccccc2F)S1	/	2.7%	7.6%	-0.8	4.8	-1.1%[15.4 µM]	3.2
COC(=O)c1ccsc1NC(=O)CS(=O)(=O)c1ccccc1	-1.1%	/	10.0%	-12.0	/	3.6%[15.4 µM]	4.8
Cc1cc(NC(=O)C2CCCC2)n(-c2nc3ccccc3[nH]2)n1	9.2%	3.7%	7.0%	11.7	-0.9	-12.2%	7.7
COc1ccc(S(=O)(=O)NCC(c2ccco2)N2CCc3ccccc32)cc1 (stereo not given)	-1.9%	/	?	-22.2	/	-13.9%	0.5
CCc1ccc(NC(=O)C2CCN(C(=O)[C@@H]3Cc4ccccc4CN3)CC2)cc1	2.5%	-3.6%	-24.3%	-12.4	5.6	0.3%	-17.0
COc1cc(C(=O)OC(C)C(=O)N2CCCC2)cc2c1OCCO2 (stereo not given)	-22.3%	/	-7.9%	-3.5	/	23.1%	-0.5
CC(=O)N(C)c1ccc(N=Nc2c(C)[nH]n(-c3ccccc3)c2=O)cc1	0.4%	-20.5%	5.0%	17.4	-2.0	4.2%	-5.8

This is a random part of the collection; about 5.1% have a hit in one of these screens.
